Cruzain noTriton = inhibitors of Trypanosoma cruzi cruzain without detergent; P25779; purified cruzain, Z-FR-AMC fluorescence, no detergent; Potency, µM, for inactives: max response, negative = inhibition, usual class: inhibitors; hit rate 2.3% among 200,000;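 further: plate controls were enzyme without inhibitor for no effect and buffer without enzyme for full effect; nearly all actives have a fitted effect of over 40% in size; top concentration of the series not given in the record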
Target sequence (P25779 123-467 limits assumed): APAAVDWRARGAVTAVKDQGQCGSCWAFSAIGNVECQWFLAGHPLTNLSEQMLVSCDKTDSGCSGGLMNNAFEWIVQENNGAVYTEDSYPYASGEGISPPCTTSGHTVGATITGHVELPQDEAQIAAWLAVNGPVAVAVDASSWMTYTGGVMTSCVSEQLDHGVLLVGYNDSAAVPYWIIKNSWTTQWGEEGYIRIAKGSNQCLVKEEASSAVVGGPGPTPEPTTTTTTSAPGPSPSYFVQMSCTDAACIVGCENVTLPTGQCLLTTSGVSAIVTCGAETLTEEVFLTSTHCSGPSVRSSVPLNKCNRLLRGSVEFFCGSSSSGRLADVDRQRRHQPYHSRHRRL
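Detergent-free condition (0.00005% Triton X-100) in acetate buffer pH 5.5 with DTT. 1.5 nM enzyme and compound were pre-mixed 15 min, then 2 uM Z-FR-AMC substrate added; reaction progress from fluorescence change between first and third reads (60 s).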
Cruzain Triton = inhibitors of Trypanosoma cruzi cruzain with detergent. hit rate 0.43% among 200,000. P25779. purified cruzain, Z-FR-AMC fluorescence, 0.01% Triton. Potency, µM, for inactives: max response, negative = inhibition, usual class: inhibitors;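 further: plate controls were neutral wells for no effect and buffer without enzyme for full effect; nearly all actives have a fitted effect of over 40% in size; top concentration of the series not given in the record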
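Detergent-containing run (0.01% Triton X-100) in acetate buffer pH 5.5 with 5 mM DTT: enzyme at 1.5 nM final, 15 min compound preincubation at room temperature, then 2 uM Z-FR-AMC substrate. Activity taken as 60 s fluorescence increase at 360/450 nm.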
Numbers without * were called inactive; ? = inconclusive; & = joins results of further samples; ! = a repeat was not active. The call rests on the fitted dose curve; in most records, active means well fitted curve in the direction sought with a large enough effect; inconclusive means small, poorly fitted or top-dose-only effect, or another doubt; inactive means no such curve, though single readings can be large; an effect the other way counts as inactive or inconclusive. Potency means the concentration at half of the fitted maximal effect. Some of the compounds tested; the hit share may differ from the screen's.

The line under a structure holds: Cruzain noTriton, Cruzain Triton
[1] COc1cccc([C@@H]2Oc3ccc(Br)cc3C(=O)[C@H]2OC(=O)NS(=O)(=O)c2ccc(F)cc2)c1
    -5%, 0.5%
[2] CC[C@H]1NC(=O)c2cc(S(N)(=O)=O)c(Cl)cc2N1
    5%, -0.1%
[3] C[C@H]1NC(=O)NC1=O
    -3%&-9%, -1.3%&1.5%
[4] CNC(=O)[C@]1(C)C[C@H]1[C@H](NC(=O)[C@]1(C)C[C@H]1[C@H](NC(=O)[C@]1(C)C[C@H]1[C@H](NC(=O)[C@]1(C)C[C@H]1[C@H](NC(=O)OCc1ccccc1)c1ccccc1)c1ccccc1)c1ccccc1)c1ccccc1
    -28%, -0.2%
[5] C[C@@H]1O[C@H](O[C@@H]2CC[C@@]3(C=O)[C@H]4CC[C@@]5(C)[C@@H](C6=CC(=O)OC6)CC[C@@]5(O)[C@@H]4CC[C@]3(O)C2)C[C@H](O)[C@@H]1O
    -10%, -2.4%
[6] IC(I)I
    -2%, 0.1%
[7] COc1cccc(N)c1
    -6%, -0.9%
[8] O=C(O)c1ccccc1[N+](=O)[O-]
    -5%, 0.6%
[9] O=C(O)c1ccc(Cl)cc1Cl
    -3%, 1.2%
[10] C=Cc1ccccc1Cl
    0%, 5.3%
[11] C[C@@H](C(=O)Nc1ccc2ccccc2c1)[C@@H]1C[C@@]1(C)[C@@H](NC(=O)c1ccncc1Cl)c1ccccc1
    ?, 1.3%
[12] COC(=O)[C@@H]1C[C@@]2(O)[C@@H](O)[C@@H](O)[C@@H](O)C[C@H]2N1CC1CC1
    -3%, -2.3%
[13] CCCOCC(C)O (stereo not drawn)
    -2%, 3.6%
[14] CC1(C)CCC[C@]2(C)C3CC(=O)O[C@@]3(C)CC[C@H]12 (stereo partly drawn)
    1%, -3.3%
[15] CC(C)NC(C)C
    -2%, 0.6%
[16] CCCCC/C=C\C/C=C\CCCCCCCCCC(=O)NC(C)C(=O)O (stereo not drawn)
    26%, 1.5%
[17] CCCC[C@@H]1C[C@H]1C(NC(=O)c1cccs1)c1ccccc1C(F)(F)F (stereo partly drawn)
    -5%, -2.8%
[18] COc1ccc2nc3c(c([Si](C)(C)C(C)(C)C)c2c1)Cn1c-3cccc1=O
    2%, -8.4%
[19] CO[C@H]1[C@H](O[C@H]2O[C@@H](C)[C@@H](O[C@@H]3C[C@](C)(O)[C@H](OC(=O)CC(C)C)[C@H](C)O3)[C@@H](N(C)C)[C@@H]2O)[C@@H](CC=O)C[C@@H](C)[C@@H](O)/C=C\C=C/C[C@@H](C)OC(=O)C[C@H]1OC(C)=O
    21%, 3.2%
[20] COC(=O)c1ccc(C(NC(=O)OCc2ccccc2)/C(=C/[C@@H](C)C(=O)Nc2ccccc2)c2cccnc2)cc1 (stereo partly drawn)
    17%, -5.4%

Given with one line to a screen: entries from further up.
(8) O=C(O)c1ccccc1[N+](=O)[O-]
(9) O=C(O)c1ccc(Cl)cc1Cl
(10) C=Cc1ccccc1Cl
(11) C[C@@H](C(=O)Nc1ccc2ccccc2c1)[C@@H]1C[C@@]1(C)[C@@H](NC(=O)c1ccncc1Cl)c1ccccc1
(12) COC(=O)[C@@H]1C[C@@]2(O)[C@@H](O)[C@@H](O)[C@@H](O)C[C@H]2N1CC1CC1
(13) CCCOCC(C)O (stereo not drawn)
(14) CC1(C)CCC[C@]2(C)C3CC(=O)O[C@@]3(C)CC[C@H]12 (stereo partly drawn)
(15) CC(C)NC(C)C

compound no.	8	9	10	11	12	13	14	15
Cruzain noTriton	-5%	-3%	0%	?	-3%	-2%	1%	-2%
Cruzain Triton	0.6%	1.2%	5.3%	1.3%	-2.3%	3.6%	-3.3%	0.6%

(16) CCCCC/C=C\C/C=C\CCCCCCCCCC(=O)NC(C)C(=O)O (stereo not drawn)
(17) CCCC[C@@H]1C[C@H]1C(NC(=O)c1cccs1)c1ccccc1C(F)(F)F (stereo partly drawn)
(18) COc1ccc2nc3c(c([Si](C)(C)C(C)(C)C)c2c1)Cn1c-3cccc1=O
(19) CO[C@H]1[C@H](O[C@H]2O[C@@H](C)[C@@H](O[C@@H]3C[C@](C)(O)[C@H](OC(=O)CC(C)C)[C@H](C)O3)[C@@H](N(C)C)[C@@H]2O)[C@@H](CC=O)C[C@@H](C)[C@@H](O)/C=C\C=C/C[C@@H](C)OC(=O)C[C@H]1OC(C)=O
(20) COC(=O)c1ccc(C(NC(=O)OCc2ccccc2)/C(=C/[C@@H](C)C(=O)Nc2ccccc2)c2cccnc2)cc1 (stereo partly drawn)

compound no.	16	17	18	19	20
Cruzain noTriton	26%	-5%	2%	21%	17%
Cruzain Triton	1.5%	-2.8%	-8.4%	3.2%	-5.4%

Later entries.
The line under a structure holds: Cruzain noTriton, Cruzain Triton
[21] O=C1C(c2[nH]c3ccccc3c2O)=Nc2ccccc21
    -2%, -0.4%
[22] CCCCCCCCN
    1%, 11%
[23] CC(C)[C@@H](CC(=O)N[C@@H]1CCCC[C@H]1C(=O)N[C@H](CC(=O)N[C@@H](CCC(=O)O)CC(=O)O)Cc1ccccc1)NC(=O)C[C@H](Cc1c[nH]c2ccccc12)NC(=O)[C@@H]1CCCC[C@H]1N
    ?, 0.6%
[24] C=C1C/C(=C\C)C(=O)O[C@@H]2CCN3CC=C(COC(=O)[C@@]1(C)O)[C@H]23
    -10%, -5.1%
[25] CC1(OC(=O)c2ccco2)C(=O)C=C2C=C(c3ccc(C#N)cc3)OC=C2C1=O (stereo not drawn)
    -6%, -3.0%
[26] Cc1ccc(S(=O)(=O)N2CCC(=O)N([C@H](COCc3cccc(C)c3)Cc3ccccc3)CC2)cc1
    5%, -1.0%
[27] CC(=O)CC(C)C
    -4%, -0.2%
[28] C=C[C@H]1CN2CCC1C[C@@H]2C(O)c1ccnc2ccccc12 (stereo partly drawn)
    -11%, 4.3%
[29] CC1=CC(=O)C2=C(C)C[C@H](O)[C@H]3[C@H](C)C(=O)O[C@@H]3C12 (stereo partly drawn)
    4%, -6.9%
[30] O=C(NCc1ccco1)O[C@@H]1C(=O)c2cc(Br)ccc2O[C@H]1c1ccc2c(c1)OCO2
    -12%, -2.0%
[31] COC(=O)C1(CC(C)C)C=C2C(=C(C)C(=O)C2C)CN1 (stereo not drawn)
    -4%, -5.0%
[32] COC(=O)c1ccc(C(NC(=O)OCc2ccccc2)/C(I)=C/[C@@H](C)C(=O)Nc2ccccc2)cc1 (stereo partly drawn)
    -14%, -4.5%
[33] C[C@H]1[C@H](C)CC[C@]2(C(=O)O)CC[C@]3(C)C(=CCC4[C@@]5(C)CC[C@H](O)C(C)(C)[C@@H]5CC[C@]43C)[C@H]12 (stereo partly drawn)
    -4%, 0.2%
[34] CC(C)N=C(N)/N=C(\N)Nc1ccc(Cl)cc1
    -15%, -0.9%
[35] CCN[C@]1(c2cccs2)CCCCC1=O
    -11%, -1.0%
[36] COC(=O)CN=C1OC(=O)N2C(=O)C3=C4C(C[C@H]5C(=O)N(c6ccccc6)C(=O)[C@H]5[C@H]4[C@@]12Cc1ccccc1)[C@H]1C(=O)N(c2ccccc2)C(=O)[C@H]1[C@H]3C (stereo partly drawn)
    1%, -1.9%
[37] Fc1ccccc1
    -1%, 4.9%
[38] COc1cc(/C=C/C(=O)c2cccs2)cc(OC)c1OC
    ?, -6.8%
[39] CCCC[C@@H]1C[C@H]1C(NC(=O)c1ccccc1)c1ccc(Cl)cc1 (stereo partly drawn)
    4%, 0.0%
[40] COc1cc2oc(=O)cc(-c3cccc(-c4ccc(C(C)=O)cc4)c3)c2c(OC)c1OC
    19%, 1.5%
[41] CC[N@+]1(C)CCC[C@@H](OC(=O)C(O)(c2ccccc2)c2ccccc2)C1
    1%, 5.0%
[42] CO[C@H]1C=C2CCN(C)[C@@H]2[C@@H]2c3cc4c(cc3C(=O)O[C@H]21)OCO4
    -9%, -10%
[43] CCCCCCC=O
    1%, 1.1%
[44] C=C1C(=O)[C@]23[C@H](O)[C@H]1CC[C@H]2[C@@]12COC3(O)[C@H](O)[C@@H]1C(C)(C)CC[C@@H]2O
    -1%, -3.7%
[45] COc1cc(C(=O)N2CCOCC2)cc(OC)c1OC
    -2%, 4.2%
[46] CC(C)Cn1nnnc1S(=O)(=O)Cc1ccccc1
    13%, 6.5%
[47] CC(C)(C)NC(=O)[C@@H]1C[C@H]2CCCC[C@@H]2CN1C[C@H](O)[C@H](Cc1ccccc1)NC(=O)[C@@H](CC(N)=O)NC(=O)c1ccc2ccccc2n1
    29%, -1.8%
[48] O=C1NO[C@H]2[C@@H]1CN[C@@H]2C(=O)O
    -5%, -2.4%
[49] CC(C)C[C@@H](CC(=O)N[C@H](CC(=O)N[C@@H]1CCCC[C@H]1C(=O)N[C@H](CC(=O)N[C@@H](CCC(=O)O)CC(=O)O)Cc1ccccc1)C(C)C)NC(=O)[C@@H]1CCCC[C@H]1N
    ?, 1.9%
[50] CCCCCC[C@H]1C(=O)O[C@H](C)[C@H](NC(=O)c2cccc(NC=O)c2O)C(=O)O[C@@H](C)[C@H]1OC(=O)CC(C)C
    -24%, -11%
[51] CCC1=C(OC(=O)N(CC)CC)N2C(=O)OC(=NCCOC)[C@]2(C)[C@H]2C1=CC[C@H]1C(=O)N(CC)C(=O)[C@H]12
    ?, 7.8%
[52] COC(=O)C12C/C=C\Cc3ccccc3[C@@H]1CNC2=O (stereo partly drawn)
    -5%, 3.8%
[53] CC(C)C[C@@H](CC(=O)N[C@@H](CCCN)CC(=O)N[C@@H]1CCNC[C@H]1C(=O)N[C@H](CC(=O)N[C@@H](CCC(=O)O)CC(=O)O)CC(C)C)NC(=O)[C@@H]1CNCC[C@H]1N
    -4%, -0.1%
[54] C#C[C@]1(O)CC[C@@H]2[C@H]3CCC4=CCCC[C@@H]4[C@@H]3CC[C@@]21C
    ?, -10%
[55] COC(=O)[C@@]1(Cc2ccc(F)cc2)[C@H]2c3cc(C(=O)N(C)C)n(CCCNc4ccc(C(F)(F)F)cc4Cl)c3C[C@H]2CN1C(=O)c1ccccc1
    ?, 0.2%
[56] S=C(NC1CCCCC1)NC1CCCCC1
    6%, 3.4%
[57] COC(=O)[C@H](Cc1ccccc1)NC(=O)O[C@@H]1C(=O)c2ccc(OC)cc2O[C@H]1c1ccc2c(c1)OCO2
    -17%, 1.7%
[58] Cc1ccc2oc(=O)c3c4cc(O)c(O)c(C)c4oc3c2c1
    1%, -9.3%
[59] COC(=O)CNC(=O)[C@@]1(Cc2ccccc2)C=C[C@@H](C)N1C(=O)c1ccccc1
    -2%, 2.5%
[60] COCCNC(=O)C1(CC(C)C)C=CCN1C(C)=O (stereo not drawn)
    -5%, 0.1%
[61] COc1cccc(-c2cc(=O)c3cc(NC(=O)c4ccc(C)cc4)ccc3[nH]2)c1
    ?, -0.2%
[62] C/C=C1\C[C@H](C)[C@@](O)(CO)C(=O)OCC2=CCN3CC[C@@H](OC1=O)[C@@H]23
    -3%, -8.8%
[63] CCC1CN2CCC1CC2C(O)c1ccnc2ccccc12 (stereo not drawn)
    -2%, 5.6%
[64] O=C(NCCc1c[nH]c2ccccc12)[C@H]1C[C@@H]1[C@H](NP(=O)(c1ccccc1)c1ccccc1)c1ccccc1
    2%, -2.9%
[65] CCN(CC)C(=O)N[C@H]1C=C2c3cccc4[nH]cc(c34)C[C@@H]2N(C)C1
    -4%, -5.9%
[66] CC1=C(C(=O)OCc2ccccc2)C(C2CC2)NC(=O)N1CCCCCC(=O)O (stereo not drawn)
    6%, -5.3%
[67] CCc1cccc2nc3c(c([Si](CC)(CC)CC)c12)Cn1c-3cccc1=O
    7%, -17%
[68] O=C(O)c1cccc(Cl)c1
    2%, 2.8%
[69] Cc1ccc([N+](=O)[O-])cc1C
    6%, 0.5%
[70] Nc1ccc(-c2ccc(N)c(Cl)c2)cc1Cl
    -17%, -7.7%

Next entries follow.
The line under a structure holds: Cruzain noTriton, Cruzain Triton
[71] COC(=O)[C@@]1(Cc2ccc(OC)cc2)[C@H]2c3cc(C(=O)N4CCCC4)n(Cc4cc(F)cc5c4OCOC5)c3C[C@H]2CN1C(=O)c1ccccc1
    ?, -2.5%
[72] CC/C=C\C/C=C\C/C=C\C/C=C\C/C=C\C/C=C\CCC(=O)NCCO
    -9%, -0.4%
[73] C[C@H](CCC(=O)O)[C@H]1CC[C@@H]2[C@H]3CC[C@H]4C[C@H](O)CC[C@]4(C)[C@@H]3CC[C@@]21C
    15%, -5.5%
[74] O=C(O)/C=C/c1cccc(B(O)O)c1
    1%, 1.9%
[75] [O-][Br+2]([O-])O
    -25%&-19%, 22µM*!
[76] Nc1ccc([N+](=O)[O-])cc1[N+](=O)[O-]
    -9%, -1.5%
[77] C[C@@](O)(/C=C/[C@H]1CC=CC(=O)O1)[C@@H](C[C@@H](O)\C=C/C=C\C=C\CO)OP(=O)(O)O
    1%, 8.8%
[78] Ic1c(C2=CCCCC2)[se]c2ccccc12
    -15%, -1.3%
[79] Clc1nc(Cl)nc(Nc2ccccc2Cl)n1
    2%, -6.0%
[80] COCCNC(=O)[C@H](C)[C@@H]1C[C@@]1(C)[C@@H](NC(=O)OCc1ccccc1)c1ccccc1
    ?, 2.6%
[81] COc1ccc(COC2OC[C@]3(C)[C@H]4C5=C(CN3C(=O)OC(C)(C)C)[C@H](C)C(CO)C(CO)C5CC[C@@H]24)cc1 (stereo partly drawn)
    ?, -4.1%

Screens (PubChem BioAssay)
